Source: PubChem
Insulin prom inh: TRM-6 insulin promoter activity inhibition; inhibition, % at 2 µM; TRM-6 cells (human fetal islet line), insulin promoter-eGFP reporter, imaging; reporter expression induced with tamoxifen; actives 0.9% (n = 130,000);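 active = inhibition above the mean plus 3 SD, with well images judged a real hit on visual review, cut at about 60% in these data, passing the limit was not always enough; inconclusive = inhibition over the cutoff but images rejected on review; inactive = inhibition not above the cutoff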
PKD1 inh: PKD1 (human) kinase inhibition; actives 0.056% (n = 200,000); PKD1 kinase fluorescence polarization assay; AID 797; Q15139; inhibition, %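 (about 10 µM by stock and volumes)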;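 active = inhibition of 50% or more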;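 note: controls were vehicle for no effect and a reference inhibitor for full effect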
HSV replic up: increases HSV replication in cells. HSV replication augmentation in cells, fold increase. maximum fold increase. actives 0.005% (n = 220,000). AID 1956;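 active = peak rise of 1.5-fold or more in the series; inconclusive = self-fluorescent or not available for retest; tested in PC3 cells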;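 note: first round at 10 µM; read as green reporter fluorescence; hits show the peak of a series up to 25 µM; 1 = signal of infected wells without compound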
GALR2 ag: GALR2 (human) receptor agonism; GALR2-expressing cells, agonist activation read-out; AID 803; actives 0.48% (n = 140,000); activation, %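 (tested at 5 µM)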;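 active = above mean plus 3 SD of all compounds, about 5% in these data, not always enough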;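 note: 0% = vehicle buffer wells and 100% = reference agonist at full effect; tested in CHO reporter cells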
Target sequence (O43603 whole entry, looked up): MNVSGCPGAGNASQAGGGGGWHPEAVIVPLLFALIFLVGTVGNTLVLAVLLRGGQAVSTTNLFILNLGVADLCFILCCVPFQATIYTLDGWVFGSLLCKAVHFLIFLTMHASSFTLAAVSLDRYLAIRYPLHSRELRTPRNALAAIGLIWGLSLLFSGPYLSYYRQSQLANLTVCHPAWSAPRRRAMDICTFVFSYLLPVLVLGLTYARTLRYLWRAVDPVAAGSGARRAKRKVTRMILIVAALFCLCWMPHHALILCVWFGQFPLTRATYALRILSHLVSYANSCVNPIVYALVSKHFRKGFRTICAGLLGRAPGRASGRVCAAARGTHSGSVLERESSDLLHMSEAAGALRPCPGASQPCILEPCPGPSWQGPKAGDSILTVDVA
RGS16-Gao HTS: regulators of human RGS16-Galphao interaction. actives 0.38% (n = 220,000). bead-based flow cytometry RGS16-Galphao binding, fluorescence; actives lie on both sides. O15492+P09471. AID 1441. binding response (% of control), % at 10 µM;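 active = below 25% or above 175%, edge rows of some plates excepted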;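 note: Galphao activated by GDP with aluminum fluoride before binding; 100% = wells without compound and 0% = beads without RGS; some results beyond the cut were filed as inactive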
Target sequence (O15492 whole entry, looked up): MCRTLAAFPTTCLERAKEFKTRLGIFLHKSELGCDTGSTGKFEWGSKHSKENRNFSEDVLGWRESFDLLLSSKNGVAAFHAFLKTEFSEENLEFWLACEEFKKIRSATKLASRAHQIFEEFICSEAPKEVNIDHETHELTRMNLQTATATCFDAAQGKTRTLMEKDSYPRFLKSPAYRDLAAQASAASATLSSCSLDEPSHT
Target sequence (P09471 whole entry, looked up): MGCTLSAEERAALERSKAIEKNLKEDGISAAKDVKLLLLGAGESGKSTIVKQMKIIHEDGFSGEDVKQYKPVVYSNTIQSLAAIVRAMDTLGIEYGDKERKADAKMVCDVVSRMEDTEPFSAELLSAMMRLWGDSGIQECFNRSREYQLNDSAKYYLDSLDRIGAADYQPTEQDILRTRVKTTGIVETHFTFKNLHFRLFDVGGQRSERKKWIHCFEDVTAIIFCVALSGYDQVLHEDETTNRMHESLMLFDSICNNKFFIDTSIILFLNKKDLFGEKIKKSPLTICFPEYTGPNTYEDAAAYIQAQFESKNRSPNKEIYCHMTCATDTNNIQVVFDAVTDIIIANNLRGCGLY
Insulin prom inh cell count: recorded beside Insulin prom inh, whose call it bears; normalized cell count, %; measured here: cell count, toxicity; reference of the scale not given here;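 cells exposed to compound for 48 h; stained nuclei by imaging scaled within each plate; lower means fewer cells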
HSV replic up primary fold: also measured in HSV replic up; calls as there; fold increase; compound at 10 µM; measured here: primary screen fold increase 10 uM; tested in PC3 cells;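 GFP signal in the first replicate; 1 = infected wells without compound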
The depositor's hits bear a star; i = inactive; ? = inconclusive; / = no result given. An unsorted share of the library. Share with any hit: about 1.2%.

SMILES | Insulin prom inh | Insulin prom inh cell count | PKD1 inh | HSV replic up | HSV replic up primary fold | GALR2 ag | RGS16-Gao HTS
O=C(NC1=NCCS1)c1cccc(OC(F)F)c1 | 45 | 102 | -3 | i | 0.94 | / | 86
CC(C)N(Cc1ccccc1)C(=O)CSc1nccn1C | -42 | 105 | 5 | i | 0.96 | / | 109
COC(=O)C1=C(O)C(C(=O)OC)C(c2ccc(C)cc2)C(C#N)(C#N)C1c1ccc(C)cc1 (stereo not given) | 59 | 187 | -2 | / | / | -0.3 | 94
COCCCN(C(=O)c1cc2c(s1)CCC2)c1c(N)n(Cc2ccccc2)c(=O)[nH]c1=O | / | / | 3 | i | 1 | / | 95
Cc1ccc(S(=O)(=O)NNC(=O)NC23CC4CC(CC(C4)C2)C3)cc1 | 7 | 67 | -11 | i | 1 | -0.5 | 63
O=C1OC(c2cccs2)=N/C1=C/c1ccc(-c2cccc(C(=O)O)c2)o1 | / | / | -2 | i | 0.97 | / | 95
COc1cc2c(c(O)c1OC)-c1c(cc(OC)c(OC)c1O)[C@@H](OC(=O)c1ccccc1)[C@@](C)(O)[C@@H](C)[C@@H]2OC(C)=O | / | / | / | i | 0.96 | / | 100
CCC1(C)Cc2ccccc2C(Nc2c(C)n(C)n(-c3ccccc3)c2=O)=N1 (stereo not given) | -37 | 111 | 2 | i | 1 | -3.5 | 101
Cc1c(NC(=O)C(C)c2ccc(CC(C)C)cc2)c(=O)n(-c2ccccc2)n1C (stereo not given) | 17 | 54 | -7 | i | 0.89 | -2.3 | 98
O=C(NCCCN1CCCC1)c1ccc(CS(=O)(=O)c2ccc(Br)cc2)o1 | / | / | 3 | / | / | -3.0 | 124
O=C(Nc1ccc(S(=O)(=O)N2CCN(Cc3ccccc3)CC2)cc1)c1cnccn1 | 19 | 89 | -5 | i | 1.1 | 0.9 | 101
CCCCC1=CC2=CC(=O)C(C)(OC(=O)CC)C(=O)C2=CN1C1CCCCC1 (stereo not given) | / | / | / | i | 1.1 | / | 95
CCn1nc(NC(=O)c2ccco2)c2cc3ccccc3nc21 | / | / | -13 | i | 1.1 | -0.1 | 103
O=C(O)CCN1CCOCC1 | / | / | -8 | i | 0.95 | -2.1 | 132
Cc1cc(C(=O)Nc2c[nH]c(=O)[nH]c2=O)ccc1[N+](=O)[O-] | -78 | 21 | -4 | i | 0.98 | / | 107
Oc1ccc(/C=N/Nc2nc(N3CCCC3)nc(N3CCCC3)n2)cc1O | / | / | 2 | i | 0.82 | / | 94
Cc1ccc(NC(=S)N(CCN(C)C)C(C)c2ccco2)c(C)c1 (stereo not given) | / | / | / | i | 0.98 | / | 99
C=CCOc1cccc(CNc2ccc3[nH]c(=O)[nH]c3c2)c1 | / | / | -2 | i | 0.76 | / | 99
CCN(CC)C(=O)CSc1nc(C)cc(C)c1C#N | 0 | 124 | -6 | i | 0.96 | / | 98
CS(=O)(=O)c1ccc(Cl)c(S(=O)(=O)NCc2ccccc2)c1 | -36 | 199 | -5 | i | 0.78 | 2.1 | 100
CS(=O)(=O)N(CC(=O)N1CCCC1)Cc1ccc(Cl)cc1 | -11 | 122 | -9 | i | 0.99 | -0.6 | 102
CCOC(=O)c1cc(-c2ccccc2)sc1NC(=O)C(C)OC(=O)c1cccc(S(=O)(=O)N(C)C)c1 (stereo not given) | -7 | 145 | -8 | i | 0.88 | -0.4 | 107
CCC(=O)N1CCc2cc(S(=O)(=O)CCC(=O)Nc3nc(C)cs3)ccc21 | 5 | 128 | -8 | i | 0.82 | -0.9 | 107
OC(CN1CCOCC1)c1ccc(F)cc1 (stereo not given) | / | / | 1 | i | 1 | / | 102
Cc1ccccc1NCC(=O)N=Nc1c(O)[nH]c2ccc([N+](=O)[O-])cc12 | / | / | / | i | 0.97 | / | 107
CCNC(=O)NC(=O)C(C)OC(=O)c1cccnc1SC (stereo not given) | / | / | -3 | i | 0.91 | -1.7 | /
O=C(NCC1CCCO1)[C@@H]1CSC2c3ccccc3C(=O)N21 (stereo not given in full) | / | / | -2 | i | 1 | 0.1 | 96
COc1cccc(C(=O)Nc2cccc(NC(C)=O)c2)c1 | / | / | -11 | i | 1.1 | -0.5 | 102
O=C(Nc1ccc(Cl)cc1)N1CCOC12CCC1(CC2)OCCO1 | / | / | -4 | i | 0.86 | / | 97
COC(=O)c1ccc(NC(=O)CNCc2ccncc2)cc1 | 11 | 118 | -6 | i | 0.95 | -0.4 | 112
CC(C)n1cnc2cc(NCc3ccccc3O)ccc21 | / | / | / | i | 0.92 | / | 98
CCCOC(=O)Nc1c(C)cccc1C(C)C | 8 | 137 | -2 | i | 0.93 | / | 100
O=C(C1CCCN(S(=O)(=O)c2cccc3nsnc23)C1)N1CCc2ccccc2C1 (stereo not given) | / | / | -11 | / | / | -1.6 | 110
Cc1[nH]n(-c2nc(-c3ccccc3F)cc(=O)[nH]2)c(=O)c1CCO | -25 | 105 | -2 | i | 0.96 | / | 99
CCc1ccccc1NC(=S)N(Cc1ccc(OC)cc1)CC1CCC(C(=O)O)CC1 (stereo not given) | / | / | -7 | i | 1 | / | 106
Cc1ccc(/C=C/C(=O)NCc2cccs2)cc1 | -76 | 83 | 0 | i | 1 | 0.5 | 98
CCSc1nnc(NC(=O)C2CCN(S(=O)(=O)c3cc(C(F)(F)F)ccc3Cl)CC2)s1 | -50 | 95 | -1 | i | 0.9 | -0.5 | 91
O=C(COc1ccc2ccccc2c1)NNC(=O)[C@@H]1CCCC[C@@H]1C(=O)O | / | / | 1 | / | / | -2.4 | 106
COc1cc(/C=C/C(=O)O)cc(S(=O)(=O)NCc2ccc3c(c2)OCO3)c1OC | 13 | 105 | 7 | i | 0.92 | / | 96
CN(C[C@H](Cc1ccccc1)N(CCN(CCc1ccccc1)N=O)N=O)N=O | / | / | -4 | i | 0.79 | / | 100
COc1cc2[nH]cc(C(=O)NCc3cccs3)c(=O)c2cc1OC | 33 | 103 | 7 | i | 1.1 | -0.1 | /
O=C(c1nc2nc(-c3ccccc3)cc(C(F)(F)F)n2n1)N1CCOCC1 | -21 | 180 | -14 | i | 0.84 | -2.1 | 93
COc1cccc(NC(=O)Nc2nnc(-c3ccccc3SCc3ccccc3)s2)c1 | -7 | 108 | 4 | i | 0.63 | -1.1 | 106
COc1ccc(NC(=O)Cn2c(=O)c(C)nc3ccccc32)cc1Cl | / | / | / | ? | / | / | 98
Cc1ccc2c(c1)C(=O)C(=O)N2CCCOc1ccccc1 | -33 | 79 | 7 | i | 0.99 | / | 95
Cc1ccc(CNC(=O)CSc2nc3ccccc3c(=O)n2CCCO)cc1 | / | / | -3 | i | 1 | -1.6 | 114
COc1ccc(CCNC(=O)Cc2cc(=O)[nH]c(=O)[nH]2)cc1OC | / | / | -5 | i | 0.97 | -1.5 | 101
CC(=O)c1ccc(-c2ccc(C(=O)N3CCCc4ccccc43)o2)cc1 | -18 | 105 | -5 | i | 0.91 | / | 116
Cc1ccc(S(=O)(=O)N(C)C)cc1NC(=O)c1ccccc1Br | / | / | 4 | i | 0.94 | / | 102
Cc1nn(CCc2nn[nH]n2)c2nc(-c3ccc(Br)cc3)cc(C(F)(F)F)c12 | -25 | 72 | -5 | i | 1 | / | 111
Cn1nc(-c2ccc(Cl)cc2)cc1NC(=O)CC(C)(C)CC(=O)O | / | / | / | i | 1.2 | / | 95
Cc1cc(NC(=O)CSc2nnc(C)c(=O)[nH]2)no1 | / | / | 6 | i | 1 | / | 108
O=C(CC1C(=O)NCCN1Cc1ccccc1C(F)(F)F)NCCc1ccccn1 (stereo not given) | 5 | 70 | 6 | i | 1.1 | / | 101
O=C(CC1CCCC1)OCn1nnc2ccccc2c1=O | 23 | 133 | -5 | i | 0.99 | -1.2 | 114
O=C1C(=O)N(Cc2ccccc2)C(=O)N1CCOc1ccccc1 | / | / | -4 | i | 0.97 | / | 49
CCO/C=C1\C(=O)N(c2ccccc2)C(=O)c2ccccc21 | -48 | 127 | -7 | i | 0.94 | 0.7 | 95
O=C(N/N=C/c1ccc(O)c(O)c1O)/C(=C/c1ccc([N+](=O)[O-])cc1)NC(=O)c1ccccc1 | -7 | 93 | 4 | i | 1.1 | -1.6 | 63
CCCCn1c(-c2sccc2C)n[nH]c1=S | / | / | 0 | i | 0.92 | / | 98
O=c1[nH]c(N2CCOCC2)nc2ncn(Cc3ccccc3)c12 | 56 | 117 | -5 | i | 0.79 | -3.0 | 102
CC1CCN(C(=O)COc2ncnc3ccccc23)CC1 | / | / | -4 | i | 0.9 | / | 88

Reformatted field by field: part of the list above
Structure: O=C(N/N=C/c1ccc(O)c(O)c1O)/C(=C/c1ccc([N+](=O)[O-])cc1)NC(=O)c1ccccc1
  Insulin prom inh: -7 | Insulin prom inh cell count: 93 | PKD1 inh: 4 | HSV replic up: i | HSV replic up primary fold: 1.1 | GALR2 ag: -1.6 | RGS16-Gao HTS: 63

Structure: Cc1ccc(CNC(=O)CSc2nc3ccccc3c(=O)n2CCCO)cc1
  Insulin prom inh: / | Insulin prom inh cell count: / | PKD1 inh: -3 | HSV replic up: i | HSV replic up primary fold: 1 | GALR2 ag: -1.6 | RGS16-Gao HTS: 114

Structure: O=c1[nH]c(N2CCOCC2)nc2ncn(Cc3ccccc3)c12
  Insulin prom inh: 56 | Insulin prom inh cell count: 117 | PKD1 inh: -5 | HSV replic up: i | HSV replic up primary fold: 0.79 | GALR2 ag: -3.0 | RGS16-Gao HTS: 102

Structure: Cc1nn(CCc2nn[nH]n2)c2nc(-c3ccc(Br)cc3)cc(C(F)(F)F)c12
  Insulin prom inh: -25 | Insulin prom inh cell count: 72 | PKD1 inh: -5 | HSV replic up: i | HSV replic up primary fold: 1 | GALR2 ag: / | RGS16-Gao HTS: 111

The listing continues:
SMILES | Insulin prom inh | Insulin prom inh cell count | PKD1 inh | HSV replic up | HSV replic up primary fold | GALR2 ag | RGS16-Gao HTS
COc1cccc(CNC(=O)C2CCN(S(=O)(=O)c3c(C)nn(C)c3C)CC2)c1 | / | / | -2 | i | 1.1 | -1.7 | 93
CC(C)(C)NC(=O)COc1ccc(CNCCc2ccccc2)cc1 | / | / | -7 | i | 0.89 | / | 100
CCc1ccc(OCC(=O)N/N=C/c2ccc(OS(=O)(=O)c3ccc(C)cc3)c(OC)c2)cc1 | / | / | 2 | i | 0.86 | 1.3 | 101
COc1ccc2nc3oc(C(=O)N4CCN(c5cccc(C(F)(F)F)c5)CC4)cc3cc2c1 | 36 | 67 | -1 | i | 0.92 | -0.3 | 101
C=CCNc1nc(NCCN2CCOCC2)nc(OC)n1 | 31 | 146 | 10 | i | 0.82 | -0.1 | 100
CCOC(=O)c1ccc2c(c1)n(CC)c(/C=C/Nc1ccccc1)[n+]2CC | 20 | 66 | 6 | i | 0.88 | 0.5 | 103
C=CCNC(=O)CCc1nnc(C2(c3ccc(Cl)cc3)CCC2)o1 | / | / | 2 | i | 0.83 | / | 102
COc1cc(NS(=O)(=O)c2ccc(Nc3nc(-c4ccccc4)cs3)cc2)nc(OC)n1 | 3 | 101 | -4 | i | 1.1 | 0.3 | 102
CCN(CC)c1ccc(C(=O)N/N=C(\C)c2ccc(O)cc2)cc1 | -37 | 95 | 1 | i | 0.87 | -3.2 | 101
CN1/C(=C\C=N\NC(=O)c2cccnc2)C(C)(C)c2ccccc21 | -29 | 105 | 6 | i | 1.4 | / | 96
CC1(C)NC(=O)N(CC(=O)Nc2cc(S(=O)(=O)N3CCOCC3)ccc2N2CCOCC2)C1=O | -100 | 36 | 3 | i | 1.1 | / | 94
COc1ccc(CCn2c(=O)[nH]c3cc(C(=O)NCCc4ccccc4)ccc3c2=O)cc1OC | -19 | 87 | -8 | i | 0.51 | -2.4 | 109
COc1cc(SC)ccc1C(=O)NCc1ccccc1 | 6 | 63 | -14 | i | 1 | -1.1 | 105
CC(C)(C)SCCNC(=O)c1ccc(NS(C)(=O)=O)cc1 | -46 | 198 | -7 | i | 0.81 | -3.9 | 60
COc1ccc(-c2cc(-c3n[nH]c(=S)n3-c3cccc4ccccc34)[nH]n2)cc1 | / | / | 1 | i | 0.9 | / | 95
COc1ccc(CNC(=O)c2cc(-n3cnnc3)ccc2Cl)cc1 | 59 | 81 | -8 | i | 0.87 | -1.8 | 98
CCOC(=O)c1oc2ccc(CNC3CCCCC3)c(Cl)c2c1C | 31 | 86 | -4 | i | 0.89 | -1.5 | 111
Cc1ccc(S(=O)(=O)N(C)C)cc1NC(=O)COC(=O)/C=C/c1ccc2c(c1)OCO2 | -26 | 129 | -6 | i | 0.9 | / | 98
COC(=O)c1ccccc1NC(=O)CS(=O)(=O)Cc1nc(-c2ccc(C)cc2)oc1C | / | / | -17 | i | 0.94 | -2.3 | 105
Cc1ccc(/C=C/C2=NN(Cc3ccccc3)C(=O)CC2)cc1 | / | / | 5 | i | 0.92 | -2.2 | 100
